Source: PubChem BioAssay
E coli growth – E. coli growth inhibition | Escherichia coli growth, OD600, 23 h; hits give low values | OD600 absorbance (concentration not given with the values) | hit rate 0.21% among 330,000;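 active = OD600 absorbance below the run mean of sample wells minus 3.6 SD, in any replicate, cut at about 0.56 in these data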;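 also: stock transfer was 300 nL into about 60 µL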
FGF22 binding – binders of recombinant human FGF22 by thermal shift | hit rate 1.5% among 340,000 | Q9HCT0 | AID 651658 | calls only at 9.99 µM | SYPRO orange fluorescence; percent of sucrose octasulfate shift, DMSO zero;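 active = melting point raised past a set limit in the mean and every replicate; three in four hits are not shown here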
Target sequence (Q9HCT0 whole entry, looked up): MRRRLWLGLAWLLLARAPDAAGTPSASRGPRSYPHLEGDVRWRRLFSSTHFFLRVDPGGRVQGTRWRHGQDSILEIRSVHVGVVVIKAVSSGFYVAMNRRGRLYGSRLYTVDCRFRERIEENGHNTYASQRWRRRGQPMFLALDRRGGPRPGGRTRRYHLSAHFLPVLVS
T cruzi inh – blocks replication of Trypanosoma cruzi; T. cruzi beta-gal in NIH3T3, luminescence, 90 h; inhibition, % (no concentration beside the values); hit rate 1.4% among 300,000; AID 1885;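 active = mean inhibition across valid replicates above about 55%, limit read from the data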;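 also: signal also drops with host cell toxicity which is not excluded here; 0% = plate median of DMSO wells and 100% = zero luminescence signal; higher percent means less beta-gal luminescence so fewer parasites; stock transfer was 50 nL into about 50 µL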
rRNA inh HTS – selective bacterial rRNA inhibition in E. coli. AID 720706. GFP signal change (wild-type ribosome), % (no concentration beside the values). hit rate 1.6% among 350,000. E. coli WT GFP vs humanized-ribosome RFP mutants, fluorescence, 24 h; hits give low values; DMSO median 0, no signal -100;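 active = significant combined selectivity score with lowered wild-type GFP, culture density cut under 30%, mutant RFP and density less affected; inactive = any of these conditions unmet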; also: one replicate is shown; some compounds called inactive have numbers as strong as hits
UCH37 inh – inhibitors of human deubiquitinating enzyme UCH37; Q9Y5K5; purified proteasome/UCH37, Ub-AMC cleavage fluorescence; inhibition, % (concentration not given with the values); hit rate 0.33% among 330,000; AID 588478;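 active = mean of two replicates above 20%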;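 also: 0% = compound-free wells with enzyme and 100% = wells lacking proteasome; stock transfer was 100 nL into about 20 µL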
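Reagent: Ub-AMC substrate; assay system: Proteasome-associated human UCH37 deubiquitinase; controls: no-proteasome and no-compound wells; read-out: % inhibition of Ub-AMC cleavage fluorescence; timing: 30 min preincubation with enzyme, 25 min cleavage at room temperature; signal: AMC fluorescence from Ub-AMC cleavage, excitation 355 nm, emission 460 nm; buffer or medium: Tris-HCl pH 7.4 plus ovalbumin, ATP-MgCl2, DTT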
MLL AF4-AF9 inh – blocks AF4 peptide binding to human AF9. AlphaScreen, biotin-AF4 peptide binding to FLAG-AF9. inhibition, % at 10 µM. hit rate 0.47% among 350,000. AID 651704;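 active = every replicate reaching a set inhibition limit, whatever the replicate mean, cut at about 25% in these data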;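 also: 0% = plate neutral control median and 100% = total signal loss; the record names both 10 and 1 µM as test concentration; the first replicate is given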
Target sequence (P42568 whole entry, looked up): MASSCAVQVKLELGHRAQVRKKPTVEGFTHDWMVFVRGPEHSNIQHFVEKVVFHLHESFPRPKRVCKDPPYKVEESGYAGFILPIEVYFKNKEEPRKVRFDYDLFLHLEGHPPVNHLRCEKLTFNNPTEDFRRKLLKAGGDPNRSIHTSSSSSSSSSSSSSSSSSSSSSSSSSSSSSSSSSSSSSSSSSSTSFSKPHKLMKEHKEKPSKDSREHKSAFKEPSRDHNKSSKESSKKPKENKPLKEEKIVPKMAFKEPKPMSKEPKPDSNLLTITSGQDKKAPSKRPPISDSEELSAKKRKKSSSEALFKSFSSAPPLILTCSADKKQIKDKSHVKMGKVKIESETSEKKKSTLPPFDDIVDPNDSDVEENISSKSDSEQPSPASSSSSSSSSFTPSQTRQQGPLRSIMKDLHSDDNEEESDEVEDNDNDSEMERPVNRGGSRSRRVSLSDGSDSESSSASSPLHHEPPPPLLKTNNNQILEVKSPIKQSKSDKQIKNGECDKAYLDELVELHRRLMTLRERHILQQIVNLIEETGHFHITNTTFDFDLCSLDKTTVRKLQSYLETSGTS
A1 inh – inhibitors of the anti-apoptotic protein A1, read as caspase activation | MEF A1-2A-BIM cells, Caspase-Glo 3/7 luminescence, 3 h; percent of clofoctol response, vehicle zero | caspase activation, % (no concentration beside the values) | hit rate 0.066% among 330,000;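 active = over half of replicate activation scores above 10%, or exactly half above 10 with the replicate mean above 10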;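 also: wells of about 30 µL received 50 nL stock; many hits fall short of the cut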
Beta cell apopt – blocks beta cell apoptosis. INS-1E cytokine-induced death, ATP luminescence, 48 h; percent of positive-control rescue, neutral wells zero. protection from apoptosis, % (test concentration not listed). hit rate 0.8% among 300,000. AID 435005;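 active = all replicates at 75% or more, or half of them and the mean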;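 also: 0% = cytokine-treated negative control wells and 100% = positive control rescue; higher means more ATP so stronger rescue from cytokine killing; wells of about 40 µL received 100 nL stock; the first replicate is given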
rRNA inh HTS OD600 – recorded beside rRNA inh HTS, whose call it bears; OD600 change, %; measured here: OD600 growth;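 optical density of the mix in the first replicate; 0 = DMSO median and -100 = no signal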
rRNA inh HTS RFP – recorded beside rRNA inh HTS, whose call it bears; RFP signal change, %; measured here: RFP humanized mutant strains;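 first replicate; 0 = DMSO median and -100 = no signal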
* marks the source's active call; other numbers are inactive results.

Cc1csc2c(C#N)c(=O)c3c(n12)CCC3 was read as E coli growth 0.65, T cruzi inh -15, UCH37 inh -22 and A1 inh -0.1.
Screening COC(=O)c1cc2c(C(F)(F)F)nn(C)c2s1 returned E coli growth 0.69, FGF22 binding inactive, T cruzi inh -2, rRNA inh HTS 6, UCH37 inh 2.0, MLL AF4-AF9 inh 2.1, A1 inh 0.1, Beta cell apopt -3, rRNA inh HTS OD600 12 and rRNA inh HTS RFP -1.3.
NC(=O)CN(C/C=C/c1ccccc1)C/C=C/c1ccccc1 was read as E coli growth 0.67, FGF22 binding inactive, T cruzi inh -15, rRNA inh HTS -8, UCH37 inh 2.8, MLL AF4-AF9 inh 3.0, A1 inh -0.6, Beta cell apopt -10, rRNA inh HTS OD600 -15 and rRNA inh HTS RFP 2.1.
`Cc1ccc(S(=O)(=O)N2[C@@H](c3ccc4c(c3)OCO4)C(C(=O)O)=C[C@H]2C(C)(C)C)cc1` gave E coli growth 0.72, FGF22 binding inactive, rRNA inh HTS -17, UCH37 inh 3.2, MLL AF4-AF9 inh -3.1, A1 inh 1.5, Beta cell apopt -2, rRNA inh HTS OD600 -3 and rRNA inh HTS RFP 6.5.
`COc1ccc(-c2nnc(SC(C)C(=O)Nc3ccc4c(c3)OCCO4)o2)cc1` (centres undefined) gave E coli growth 0.68, T cruzi inh -4, UCH37 inh -0.9, A1 inh -0.7 and Beta cell apopt -8.
COc1ccc(C(C(=O)NC2CCCCC2)N(C(=O)c2ccco2)c2ccccc2C(C)=O)cc1 (centres undefined) was read as E coli growth 0.67, FGF22 binding inactive, T cruzi inh 12, rRNA inh HTS 6, UCH37 inh 3.4, MLL AF4-AF9 inh -0.2, A1 inh 0.4, Beta cell apopt -9, rRNA inh HTS OD600 7 and rRNA inh HTS RFP 0.5.
CCc1cccc(CC)c1N(COC)C(=O)Cn1cnc2ccccc21 was read as E coli growth 0.67, FGF22 binding inactive, T cruzi inh -22, rRNA inh HTS -16, UCH37 inh 1.3, MLL AF4-AF9 inh 1.7, A1 inh 0.6, Beta cell apopt -5, rRNA inh HTS OD600 -14 and rRNA inh HTS RFP -0.1.
For CCC(=O)Nc1cccc(NC(=O)c2cccc([N+](=O)[O-])c2)c1 the results were E coli growth 0.58, FGF22 binding inactive, T cruzi inh -1, rRNA inh HTS 12, UCH37 inh 1.0, MLL AF4-AF9 inh 6.8, A1 inh 1.3, Beta cell apopt -5, rRNA inh HTS OD600 1 and rRNA inh HTS RFP -6.2.
Screening O=C(NCc1ccco1)C1CC(c2ccc(Cl)c(Cl)c2)=NO1 (centres undefined) returned E coli growth 0.67, FGF22 binding inactive, T cruzi inh 21, rRNA inh HTS -2, UCH37 inh 3.5, MLL AF4-AF9 inh -1.6, A1 inh -0.9, Beta cell apopt 6, rRNA inh HTS OD600 -3 and rRNA inh HTS RFP -1.0.
For CN(CC(=O)Nc1ccc(F)c(F)c1F)C(=O)c1ccc(N2CCCC2=O)cc1 the results were E coli growth 0.67, FGF22 binding inactive, rRNA inh HTS 4, UCH37 inh 0.9, MLL AF4-AF9 inh -1.4, A1 inh -2.1, Beta cell apopt -3, rRNA inh HTS OD600 5 and rRNA inh HTS RFP -2.8.
`Cc1cc(C)c2c(N)c(S(=O)(=O)c3ccccc3)sc2n1` gave E coli growth 0.71, T cruzi inh 5, UCH37 inh -57, A1 inh 0.1 and Beta cell apopt 0.
For COc1ccc(CCNC(=O)[C@@H]2C[C@H]2c2ccccc2)cc1OC the results were E coli growth 0.66, T cruzi inh 8, UCH37 inh 1.8, A1 inh -1.7 and Beta cell apopt -4.
Screening COc1ccc(C2C(C#N)=C(N)OC3=C2C(=O)CCC3)cc1OC (centres undefined) returned E coli growth 0.67, FGF22 binding inactive, T cruzi inh 7, rRNA inh HTS 10, UCH37 inh 4.1, MLL AF4-AF9 inh 0.3, A1 inh 0.0, Beta cell apopt -4, rRNA inh HTS OD600 14 and rRNA inh HTS RFP 2.9.
`O=S(=O)(Cc1ccco1)Cc1nc(-c2ccc(Cl)cc2)cs1` gave E coli growth 0.65, FGF22 binding inactive, T cruzi inh 17, rRNA inh HTS -34*, UCH37 inh 5.8, MLL AF4-AF9 inh -2.8, A1 inh 0.3, Beta cell apopt -2, rRNA inh HTS OD600 -2.3* and rRNA inh HTS RFP 4.8*.
`Cc1cc(=O)c2cc(C(=O)c3ccccc3)ccc2[nH]1` gave E coli growth 0.68, FGF22 binding inactive, T cruzi inh -3, rRNA inh HTS 6, UCH37 inh 1.4, MLL AF4-AF9 inh -0.2, A1 inh 2.5, Beta cell apopt 8, rRNA inh HTS OD600 -1 and rRNA inh HTS RFP -0.7.
For c1ccc(C2(CNc3ccccn3)CCCC2)cc1 the results were E coli growth 0.68, FGF22 binding inactive, T cruzi inh -4, rRNA inh HTS -24, UCH37 inh -4.3, MLL AF4-AF9 inh -6.5, A1 inh 0.4, Beta cell apopt 0, rRNA inh HTS OD600 -19 and rRNA inh HTS RFP -11.
For Cc1nc(NC(=O)C2CC2)sc1C(=O)Nc1ccccc1Cl the results were E coli growth 0.63, FGF22 binding active, T cruzi inh 0, rRNA inh HTS 16, UCH37 inh -1.3, MLL AF4-AF9 inh -9.4, A1 inh 0.3, Beta cell apopt 2, rRNA inh HTS OD600 17 and rRNA inh HTS RFP 2.7.
CC1CCCC(C)N1CC(C)(C)NS(=O)(=O)c1ccc(Cl)cc1 (centres undefined) was read as E coli growth 0.69, T cruzi inh 8, UCH37 inh 3.1, A1 inh 0.3 and Beta cell apopt 3.
CC1CCCN1c1ccnc2cc(Cl)ccc12 (centres undefined) was read as E coli growth 0.66, rRNA inh HTS 5, UCH37 inh 10, MLL AF4-AF9 inh -8.9, rRNA inh HTS OD600 -1 and rRNA inh HTS RFP 0.7.
For Cc1cc(NC(=O)c2ccc(N(C)S(=O)(=O)c3ccccc3)cc2)no1 the results were E coli growth 0.69, T cruzi inh 14, UCH37 inh 6.0, A1 inh -0.8 and Beta cell apopt 1.
For CCN(C(=O)COC(=O)CCC(=O)c1ccccc1)c1c(N)n(Cc2ccccc2)c(=O)[nH]c1=O the results were E coli growth 0.67, FGF22 binding inactive, rRNA inh HTS 10, UCH37 inh 4.4, MLL AF4-AF9 inh 4.5, A1 inh -0.4, Beta cell apopt 0, rRNA inh HTS OD600 11 and rRNA inh HTS RFP 0.1.
CC(C)CC(c1nnnn1Cc1ccco1)N1CCN(c2cccc(Cl)c2)CC1 (centres undefined) was read as E coli growth 0.7, T cruzi inh 32, UCH37 inh 2.8, A1 inh -0.1 and Beta cell apopt 19.
For COc1ccccc1N1CCN(C(=O)C(Cc2ccccc2)NC(=O)C2CCCCC2)CC1 (centres undefined) the results were E coli growth 0.69, T cruzi inh 12, UCH37 inh 1.9, A1 inh -0.1 and Beta cell apopt 0.
Screening COc1cc(S(=O)(=O)N(Cc2ccccn2)Cc2ccco2)ccc1-n1cnnn1 returned E coli growth 0.71, FGF22 binding inactive, T cruzi inh 1, rRNA inh HTS -8, UCH37 inh 1.9, MLL AF4-AF9 inh 2.8, A1 inh 0.2, Beta cell apopt 3, rRNA inh HTS OD600 -8 and rRNA inh HTS RFP -1.5.
O=C(Cn1cc(C(F)(F)F)ccc1=O)N/N=C/c1ccc(Cl)cc1 was read as FGF22 binding inactive, T cruzi inh -10, rRNA inh HTS 4, MLL AF4-AF9 inh 0.8, A1 inh -0.8, Beta cell apopt -5, rRNA inh HTS OD600 20 and rRNA inh HTS RFP 3.3.
For Cc1cc(C)c2c(c1)/C(=C/C(=O)c1ccc(Br)s1)C(=O)N2 the results were E coli growth 0.68, T cruzi inh 46, UCH37 inh 1.9, A1 inh 0.2 and Beta cell apopt -6.
Screening Cc1ccc(NC(=O)CCNS(=O)(=O)c2ccc3[nH]c(=O)oc3c2)c(Cl)c1 returned E coli growth 0.67, FGF22 binding inactive, T cruzi inh -4, rRNA inh HTS -4, UCH37 inh 4.2, MLL AF4-AF9 inh -0.5, A1 inh -1.3, Beta cell apopt -5, rRNA inh HTS OD600 -9 and rRNA inh HTS RFP -1.3.
Screening O=C(CCc1nc2ccccc2c(=O)[nH]1)Nc1ccc(F)c([N+](=O)[O-])c1 returned E coli growth 0.68, FGF22 binding inactive, T cruzi inh -2, rRNA inh HTS 10, UCH37 inh 3.6, MLL AF4-AF9 inh 0.2, A1 inh 0.0, Beta cell apopt -3, rRNA inh HTS OD600 8 and rRNA inh HTS RFP 1.0.

Gathered by group, the compounds so far with an aryl methoxy group.
`COc1ccc(-c2nnc(SC(C)C(=O)Nc3ccc4c(c3)OCCO4)o2)cc1` (centres undefined) gave E coli growth 0.68, T cruzi inh -4, UCH37 inh -0.9, A1 inh -0.7 and Beta cell apopt -8.
COc1ccc(C(C(=O)NC2CCCCC2)N(C(=O)c2ccco2)c2ccccc2C(C)=O)cc1 (centres undefined) was read as E coli growth 0.67, FGF22 binding inactive, T cruzi inh 12, rRNA inh HTS 6, UCH37 inh 3.4, MLL AF4-AF9 inh -0.2, A1 inh 0.4, Beta cell apopt -9, rRNA inh HTS OD600 7 and rRNA inh HTS RFP 0.5.
For COc1ccc(CCNC(=O)[C@@H]2C[C@H]2c2ccccc2)cc1OC the results were E coli growth 0.66, T cruzi inh 8, UCH37 inh 1.8, A1 inh -1.7 and Beta cell apopt -4.
Screening COc1ccc(C2C(C#N)=C(N)OC3=C2C(=O)CCC3)cc1OC (centres undefined) returned E coli growth 0.67, FGF22 binding inactive, T cruzi inh 7, rRNA inh HTS 10, UCH37 inh 4.1, MLL AF4-AF9 inh 0.3, A1 inh 0.0, Beta cell apopt -4, rRNA inh HTS OD600 14 and rRNA inh HTS RFP 2.9.
For COc1ccccc1N1CCN(C(=O)C(Cc2ccccc2)NC(=O)C2CCCCC2)CC1 (centres undefined) the results were E coli growth 0.69, T cruzi inh 12, UCH37 inh 1.9, A1 inh -0.1 and Beta cell apopt 0.
Screening COc1cc(S(=O)(=O)N(Cc2ccccn2)Cc2ccco2)ccc1-n1cnnn1 returned E coli growth 0.71, FGF22 binding inactive, T cruzi inh 1, rRNA inh HTS -8, UCH37 inh 1.9, MLL AF4-AF9 inh 2.8, A1 inh 0.2, Beta cell apopt 3, rRNA inh HTS OD600 -8 and rRNA inh HTS RFP -1.5.

A portion of the library. The share of hits here may be higher or lower than overall.
